Screening results: PubChem BioAssay, National Center for Advancing Translational Sciences (NCATS)
StopGo reporter: FMDV 2A StopGo reporter, luciferase signal; human cells with a luciferase reporter of 2A StopGo recoding; control for the full effect not named in the record; Potency, µM (top dose mostly 57.9 µM), without a hit: top-dose signal change, negative = less light; actives 1.2% (n = 410,000); AID 1159524; active = well fitted falling curve with a large enough effect; inconclusive = small, poorly fitted or top-dose-only effect; inactive = no such curve, though single readings can be large or run the other way; tested in HEK293T cells; further: on the % scale 0 is the no-effect control and ±100 the full control effect; nearly all actives have a fitted effect of over 45% in size; luciferase light after 4 h
Cruzain noTriton: inhibitors of Trypanosoma cruzi cruzain without detergent. purified cruzain, Z-FR-AMC fluorescence, no detergent. Potency, µM, without a hit: max response, negative = inhibition, actives largely listed as inhibitors. actives 2.3% (n = 200,000);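 further: plate controls were enzyme without inhibitor for no effect and buffer without enzyme for full effect; nearly all actives have a fitted effect of over 40% in size; top concentration of the series not given in the record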
Target sequence (P25779 123-467 limits assumed): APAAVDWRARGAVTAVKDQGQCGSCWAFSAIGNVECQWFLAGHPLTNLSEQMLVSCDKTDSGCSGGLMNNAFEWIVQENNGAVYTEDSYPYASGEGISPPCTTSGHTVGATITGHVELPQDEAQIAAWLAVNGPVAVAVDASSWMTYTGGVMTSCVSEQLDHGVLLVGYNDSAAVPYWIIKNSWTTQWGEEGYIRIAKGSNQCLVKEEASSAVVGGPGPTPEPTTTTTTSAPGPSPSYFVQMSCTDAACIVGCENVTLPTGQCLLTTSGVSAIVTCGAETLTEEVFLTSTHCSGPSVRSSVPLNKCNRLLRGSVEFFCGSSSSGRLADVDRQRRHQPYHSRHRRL
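Detergent-free condition (0.00005% Triton X-100) in acetate buffer pH 5.5 with DTT. 1.5 nM enzyme and compound were pre-mixed 15 min, then 2 uM Z-FR-AMC substrate added; reaction progress from fluorescence change between first and third reads (60 s).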
MARV entry inh: blocks Marburg virus binding to or entry into cells | Marburg virus pseudotyped entry inhibition, cell reporter; control for the full effect not named in the record; about a third of the inactives were read at about 46 µM | actives 1.8% (n = 300,000) | Potency, µM (series often up to 37.8 µM), inactives show top-dose activity change, negative = inhibition, hits mostly inhibitors; active = well fitted inhibition curve with a large enough effect; inconclusive = small, poorly fitted or top-dose-only effect, or effect the other way; inactive = flat fitted curve, though single readings scatter; tested in HEK293 cells; about a fifth of its hits are not listed in these tables; further: on the % scale 0 is the no-effect control and ±100 the full control effect; luciferase read-out
Cruzain Triton: blocks cruzain activity in presence of Triton detergent | P25779 | purified cruzain, Z-FR-AMC fluorescence, 0.01% Triton | Potency, µM, for the others: max response, negative = inhibition, hits mostly inhibitors | actives 0.43% (n = 200,000);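 further: plate controls were neutral wells for no effect and buffer without enzyme for full effect; nearly all actives have a fitted effect of over 40% in size; top concentration of the series not given in the record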
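Sodium acetate buffer (100 mM, pH 5.5) containing 5 mM DTT and 0.01% Triton X-100 hosted 1.5 nM cruzain and test compound for 15 min at room temperature. Cleavage of 2 uM Z-FR-AMC was then tracked by fluorescence.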
NS1 function inh: inhibitors of influenza NS1 protein function; S. cerevisiae slowed by influenza A NS1, growth recovery by OD600; Potency, µM (highest dose often 46.1 µM), for the others: at the top dose activity, positive = more growth; actives 0.4% (n = 270,000); active means well fitted rising curve with a large enough effect; inconclusive means small, poorly fitted or top-dose-only effect; inactive means no such curve, though single readings can be large or run the other way; further: nearly all actives have a fitted effect of over 50% in size
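A cell-based growth assay was used: compounds that relieve NS1-induced slow growth of budding yeast raise OD600. Assay medium was yeast nitrogen base with ammonium sulphate and -URA supplement, pH 6.0, with 2% galactose.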
SARS PLP yeast: blocks SARS-CoV papain-like protease in a yeast assay; S. cerevisiae expressing SARS-CoV PLpro, growth rescue; control for the full effect not named in the record; actives 0.19% (n = 330,000); AID 485353; Potency, µM (titrated, usually from 32.9 µM), inactives show at the top dose activity, positive = growth rescue; active means well fitted rising curve with a large enough effect; inconclusive means small, poorly fitted or top-dose-only effect; inactive means no such curve, though single readings can be large or run the other way; further: 0% is about no effect; nearly all actives have a fitted effect of over 55% in size; growth read by luminescence after 48 h
RE007 growth inh: less growth of the S. pombe RE007 Vpr strain | Potency, µM (series often up to 92.2 µM), without a hit: top-dose activity change, negative = less growth | AID 651644 | actives 0.21% (n = 360,000) | S. pombe RE007 Vpr strain, BacTiter-Glo ATP luminescence, 24 h; control for the full effect not named in the record; active = well fitted falling curve with a large enough effect; inconclusive = small, poorly fitted or top-dose-only effect; inactive = no such curve, though single readings can be large or run the other way;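 further: on the % scale 0 is the no-effect control and ±100 the full control effect; nearly all actives have a fitted effect of over 50% in size; the assay follows cell death caused by Vpr and the record does not say whether a fall means rescue or toxicity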
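Fission yeast strain RE007, carrying one chromosomally integrated HIV-1 vpr copy, was seeded at OD 0.01 in PMG+AL medium with 23 nL pinned compound. After 24 h at 30 °C and 99% humidity, viability was read by BacTiter-Glo luminescence.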
LASV entry inh: Lassa virus entry inhibition | actives 1.2% (n = 300,000) | Lassa virus pseudotype entry inhibition, cell reporter; control for the full effect not named in the record | Potency, µM (top dose mostly 37.9 µM), without a hit: top-dose activity change, negative = inhibition, hits mostly inhibitors; active means well fitted inhibition curve with a large enough effect; inconclusive means small, poorly fitted or top-dose-only effect, or effect the other way; inactive means flat fitted curve, though single readings scatter; tested in HEK293 cells; further: on the % scale 0 is the no-effect control and ±100 the full control effect; nearly all actives have a fitted effect of over 50% in size; luciferase read-out
* = called active by the depositor; ? = inconclusive; . = not tested or not shown; & = joins results of further samples; [ ] = dose if it differs, or a comment. Unless noted, the call rests on the fitted dose curve; in most records, active means well fitted curve in the direction sought with a large enough effect; inconclusive means small, poorly fitted or top-dose-only effect, or another doubt; inactive means no such curve, though single readings can be large; an effect the other way counts as inactive or inconclusive. Potency means the concentration at half of the fitted maximal effect. Hits appear at their usual frequency, and some 4.7% of all compounds hit somewhere here.

Order of values: SARS PLP yeast	LASV entry inh	Cruzain Triton	StopGo reporter	MARV entry inh	NS1 function inh	Cruzain noTriton	RE007 growth inh
- CCOC(=O)C1=c2/c(=C/c3ccccc3OC)c(N)c(C#N)n2C(=O)C(c2ccccc2OC)S1 (stereo not given)
  2%	.	0.4%	.	0%	7%	?	.
- CCC1CCCCN1CCCNC(=O)CCNC(=O)Cn1cnc2ccccc2c1=O (stereo not given)
  6%	-2%	.	1%	-8%[46.1 µM]	7%	.	6%
- Cc1ccnc(NCc2ccc(Cl)cc2)c1
  4%	?	.	15%	?	2%	.	?
- O=C(c1ccc2snnc2c1)N1CCN(c2ccccn2)CC1
  1%	1%	-4.5%	-3%	1%	6%	2%	5%
- Cc1cc(C)nc(Oc2ccc(Br)cc2Br)n1
  0%	7%	.	25%	-4%[46.1 µM]	-1%	.	13%
- CCn1nc(C(=O)Nc2ccc(S(=O)(=O)Nc3nccs3)cc2)c2ccccc2c1=O
  4%	-4%	-3.7%	67%[activator]	4%	8%	?	8%
- Cc1ccc(S(=O)(=O)Nc2cccc(C(=O)N3CCOCC3)c2)c(C)c1NS(C)(=O)=O
  11%	.	.	-10%	.	5%	.	-4%
- O=C(NCc1ccco1)c1ccccc1
  -2%	-2%	.	-5%	?	-5%	.	3%
- CCOC(=O)COc1ccccc1C1Nc2ccccc2C(=O)N1c1cccc(Cl)c1 (stereo not given)
  -8%	?	-4.3%	.	2%	-27%	-29%	0%
- COc1ccccc1N1CCN(C(=O)CCc2nnc3ccc(N4CCCC4)nn23)CC1
  -2%	.	.	-18%	.	-9%	.	-4%
- N/C(=N\S(=O)(=O)c1ccc(Cl)cc1)N1CCOCC1
  1%	2%	.	0%	?	-3%	.	9%
- CC(C)c1ccc(N2C(=O)[C@@H]3Cc4ccccc4CN3C2=O)cc1
  5%	5%	3.3%	40%[activator]	?	-3%	-14%	-6%
- COc1ccc(CC(=O)NCCc2sc(-c3ccc(Cl)cc3)nc2C)cc1OC
  .	-12%[46.1 µM]	-5.3%	0%	.	.	?	.
- O=C(CSc1ccc(-c2nc3ccccc3[nH]2)cn1)Nc1ccc(S(=O)(=O)N2CCCC2)cc1
  3%	-1%	-3.6%	-1%	24%	14µM*	32µM*	-7%
- Cc1c(Cl)cccc1NC(=O)Cn1cnc2nc3c(cc2c1=O)CCCC3
  .	15%[46.1 µM]	-2.0%	-14%	.	.	13%	.
- O=C(/C=C/c1ccco1)N/C(=C\c1ccccc1)C(=O)NCCc1nc2ccccc2[nH]1
  1%	-9%	-18%	7%	-19%	-16%	-18%	22%
- CCOC(=O)c1c(CSC(=N)N)n(-c2ccc(Br)cc2)c2cc(Br)c(OC(C)=O)cc12
  -28%	?	-10%	-18%	13µM*	?	?	6%
- O=C1CC(c2ccccc2)C(=O)N2C(=O)CC(c3ccccc3)C(=O)N12 (stereo not given)
  .	20%[46.1 µM]	.	-6%	2%[46.1 µM]	.	.	3%
- CCOC(=O)NC1C=CS(=O)(=O)C1 (stereo not given)
  2%	11%	4.6%	-17%	-1%[46.1 µM]	-8%	-9%	5%
- CC(C)CSc1nnc(-c2ccccc2)c(-c2ccccc2)n1
  .	-14%[46.1 µM]	-10%	-11%	7%[46.1 µM]	.	-1%	.
- Cc1ccccc1NC(=O)CSc1nnc2ccc(-c3ccccn3)nn12
  -3%	21%	.	10%	17%	.	.	2%
- O=C(N/N=C/c1ccc(Cl)cc1Cl)c1ccncc1
  -2%	.	.	36%[activator]	.	-13%	.	-2%
- COc1cc(NC(=O)Cn2nc(C(F)(F)F)c3c2CCCC3)c(OC)cc1Cl
  .	?	-7.9%	-7%	?	.	?	.
- Cc1ccc(-c2nc(CS(=O)CC(=O)N3CCN(c4ncccn4)CC3)c(C)o2)cc1 (stereo not given)
  14%	.	3.0%	-18%	0%	?	3%	3%
- CCOC(=O)c1c(C)[nH]c(C)c1C(=O)COC(=O)c1cccs1
  11%	-2%	.	-10%	9%	.	.	-1%
- O=C(c1cccs1)N1CCN(Cc2ccccc2[N+](=O)[O-])CC1
  1%	8%	-0.3%	-16%	23%	7%	2%	80%
- C/C(=N\NC(=O)c1ccc(O)cc1O)c1cccnc1
  4%	1%[46.1 µM]	.	0%	19%[46.1 µM]	20%	.	18%
- CC(C)C(=O)N1CCN(c2nc(-c3ccccc3)c3c(c2C#N)CC(C)(C)OC3)CC1
  -9%	-17%	-4.9%	-17%	-18%	-13%	?	1%
- NC(=O)C1CCN(C(=O)C2CCN(C(=O)Nc3ccccc3)CC2)CC1
  2%	5%	.	0%	1%	.	.	6%
- COc1ccc(CN2CCNC(=O)C2CC(=O)NCCN2CCCCC2=O)c(F)c1 (stereo not given)
  13%	8%	.	-9%	10%	-2%	.	4%
- CCN1CCN(c2ccc(S(=O)(=O)N3CCCCC3)cc2NC(=O)c2cccc(C)c2[N+](=O)[O-])CC1
  2%	?	.	-16%	?	.	.	5%
- CCN1C(=O)OC2(CCCCC2)C1(C)O (stereo not given)
  -1%	.	2.8%	.	1%	2%	-4%	.
- Oc1ccc2ccccc2c1/C=C/c1ccc2c(Br)cc(Br)c(O)c2n1
  .	-21%	.	-26%	?	.	.	13%
- CCOC(=O)c1cc(NC(=O)c2cc(C)on2)cc(C(=O)OCC)c1
  3%	-16%	-0.5%	-15%	-7%	?	-1%	1%
- CCCCNC(=O)CCCCC(=O)N/N=C/c1ccccc1Cl
  6%	-3%	-3.3%	2%	?	-3%	4%	-3%
- Cc1csc(NC(=O)/C=C/c2ccc3c(c2)OCO3)n1
  10%	?	-9.0%	-51%	4.5µM*	0%	-14%	-4%
- COc1ccc(CC2(c3ccccc3)NC(=O)NC2=O)cc1 (stereo not given)
  .	?	.	-30%	?	.	.	8%
- O=S(=O)(c1ccc(F)c(F)c1F)N1CCN(C(=S)Nc2ccccc2)CC1
  -3%	-21%	.	-15%	?	.	.	-4%
- COc1ccccc1N(C)S(=O)(=O)c1ccc(Cl)c(C(=O)NNC(=O)c2ccccc2O)c1
  2%	.	.	10%	.	-3%	.	5%
- CCc1cc(=O)oc2cc(OCC(=O)NC3CC(C)(C)NC(C)(C)C3)ccc12
  -7%	-1%[46.1 µM]	.	?	-24%[46.1 µM]	-5%	.	-19%
- CCN(CCCNC(=O)CN1N=C(c2ccc(OC)cc2)CCC1=O)c1cccc(C)c1
  .	-7%[46.1 µM]	-3.8%	-22%	.	.	19%	.
- Nc1c(-c2ccc(F)cc2)cnc2ncnn12
  6%	6%	3.7%	0%	?	2%	3%	10%
- Cc1ccc2c3c([nH]c2c1)C(=O)CC(C)(C)S3
  0%	13%	.	9%	?	-5%	.	11%
- Cc1onc(-c2c(Cl)cccc2Cl)c1C(=O)n1nnc2ccccc21
  2%	.	0.3%	.	.	5%	3%	.
- Cn1nc(N)c2c1N=P(N1CCOCC1)(N1CCOCC1)N=C2c1ccccc1
  -1%	-9%	1.1%	.	5%	-1%	-5%	3%
- CCC1CN(C(=O)C2CCN(S(=O)(=O)c3c(C)noc3/C=C/c3ccc(C)cc3)CC2)c2cc(C)ccc2O1 (stereo not given)
  .	12%[46.1 µM]	-3.7%	-16%	.	.	?	.
- CCOc1ccc2nc(NCCNS(=O)(=O)c3ccccc3)c(C#N)cc2c1
  5%	-11%	-8.5%	-2%	-26%	0%	9%	8%
- COc1ccccc1C1C=C(c2ccc(C(C)C)cc2)Nc2nnnn21 (stereo not given)
  .	?	-1.3%	8%	.	.	1%	.
- O=C(Nc1ccc(Cl)cc1)N1CCC(c2nc(-c3ccc(F)cc3)no2)CC1
  -26%	-27%	-5.6%	-21%	-29%	-18%	-10%	-9%
- CCOc1cccc(C(=O)Nc2ccccc2C(=O)N2CCN(C)CC2)c1
  4%	11%	.	-9%	-5%	12%	.	5%
- O=C(C1CCN(c2ncnc3c2nc2n3CCCCC2)CC1)N1CCN(c2ccccc2F)CC1
  -13%	-7%[46.1 µM]	.	?	.	-8%	.	8%
- CCc1cc2c(NCc3ccco3)ncnc2s1
  -5%	0%	-7.9%	?	?	-38%	-3%	5%
- COc1ccc(-c2cc(C(=O)N3CCCC3)c3ccccc3n2)cc1OC
  ?	.	.	-8%	.	0%	.	8%
- CS(=O)(=O)N(CC(=O)NC1CCCC1)c1ccc(Oc2ccccc2)cc1
  0%	.	.	7%	.	-4%	.	-7%
- O=C(NCc1ccccc1)[C@H]1C[C@@H]1[C@H](NP(=O)(c1ccccc1)c1ccccc1)c1ccccc1
  11%	?	-7.2%&-6.3%	-7%	-15%	1%	-7%&-4%	0%
- CC(C)(C)c1ccc(C(=O)NC(=S)NCC2CCCO2)cc1 (stereo not given)
  13µM*	14%	-5.1%	-14%	-9%	-1%	-3%	1%
- Cc1cc(C)c(C)c(S(=O)(=O)N2CCN(C(=O)CCc3nc4ccccc4c(=O)[nH]3)CC2)c1C
  5%	.	.	?	.	11%	.	-12%
- O=c1oc2ccccc2c(NC2CCCCC2)c1NS(=O)(=O)c1ccc(F)c(Cl)c1
  -1%	?	.	5%	?	1%	.	10%
- CCN(CC)C(=O)CN1C(=O)C2CC=C(Cl)CC2C1=O (stereo not given)
  -4%	5%	6.1%	-15%	5%	-4%	-7%	-4%
- CCS(=O)(=O)N1CCC(C(=O)Oc2ccccc2)CC1
  -5%	17%	.	-14%	-1%	-11%	.	2%
- Cc1cccc(C)c1NC(=S)N(Cc1ccco1)C1CCN(C(C)C)CC1
  11%	11%	-4.4%	0%	16%	6%	11%	18%
- CC(=O)OC(C)C1C2=C(C(=O)CC1(C)O)C(=O)c1c(ccc(-c3ccc4c(c3O)C(=O)C3=C(C4=O)C(C(C)OC(C)=O)C(C)(O)CC3=O)c1O)C2=O (stereo not given)
  .	-5%[46.1 µM]	.	18µM*	-3%	.	.	-6%
- C=CCn1c(SCC(=O)c2ccc(Cl)s2)nc2ccccc2c1=O
  -1%	-6%	-2.3%	2%	-29%	?	7%	16%
